Compound activity (PubChem BioAssay)
Choline anaer gr: blocks anaerobic gram-negative growth on choline. actives 0.2% (n = 55,000). calls only. Gram-negative bacterium anaerobic choline minimal medium, absorbance growth; stronger effect = lower value; many inactives read as strong as hits in the columns shown. AID 1963822;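 active = growth z-score on choline under -2 at 7 or 20 h with little or no fall on glycerol, limits in tiers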;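 also: stock transfer was 300 nL into about 50 µL; the organism is E. coli; final concentration not given here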
Choline anaer gr early: further read-out of Choline anaer gr, marked with its call; z-score; measured here: choline growth z-score, timepoint 1;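 score of optical density at 7 h as mean of two plates; lower means less growth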
The depositor's hits bear a star; i = inactive; + = active, no number; & = joins results of further samples. A portion of the library, so the mix of outcomes need not match the whole.

SMILES	Choline anaer gr	Choline anaer gr early
O=C1CSC(c2ccsc2)c2c(-c3ccc(Cl)cc3)nn(-c3ccccc3)c2N1 (stereo not drawn)	i	0.25
COc1ccc2c(c1)C1(CCN(C(=O)Nc3ccc4c(c3)OCCO4)C1)C(=O)N2C (stereo not drawn)	i	0.25
C[N+](C)(C)CC#CCOC(=O)Nc1cccc(Cl)c1	i	0.82
NCC(CC(=O)O)c1ccc(Cl)cc1 (stereo not drawn)	i	-0.41&0.6
COC(=O)N1CCN(C(=O)Cc2ccc(Cl)c(Cl)c2)C(CN2CCCC2)C1 (stereo not drawn)	i	0.45&0.27
O=C(Cc1cccc(F)c1)N1CCN(Cc2noc(-c3ccccc3)n2)CC1	i	0.04
COc1ccc2c(c1)C1(CCN(C(=O)C(C)(C)C)C1)C(=O)N2C (stereo not drawn)	i	0.38
CCCCCCCCCCCCCCCCOC[C@@H](COP(=O)([O-])OCC[N+](C)(C)C)OC(C)=O	+	-3.2*
CS(=N)(=O)CC[C@H](N)C(=O)O (stereo partly drawn)	i	0.79
O=C1OC2(c3cc(Br)c(O)cc3Oc3c2cc(Br)c(O)[c]3[Hg])c2ccccc21 (stereo not drawn)	i	-2.7
COc1ccc2c(c1)c(C(=O)N1CCCC1)c(C)n2Cc1ccccc1	i	0.04
CCN(CC)CCCC(C)NC(=O)c1cc2cccnc2n(Cc2ccc(F)cc2)c1=O (stereo not drawn)	i	1.2
COC[C@H]([C@@H](O)[C@@H](O)C(=O)NCC[C@@H](C)c1nc(/C=C/C[C@H]2OC3(C[C@H](O)[C@H]2C)OC([C@@H](C[C@@H](O)[C@@H](C)[C@@H](O)[C@@H](C)/C=C(C)/C(C)=C/C=C/C(C)=C\C#N)OC)[C@@H](OP(=O)(O)O)C3(C)C)co1)N(C)C (stereo partly drawn)	i	0.18
CC(C)(C)NCC(O)c1cc(Cl)c(N)c(Cl)c1 (stereo not drawn)	i	0.73&0.26
COc1ccccc1CN1CCN(Cc2ccccc2F)CC1	i	-0.38
O=C1[C@@H]2CCCN2[C@@H](c2ccc(Br)cc2)N1c1ccccn1	i	-1.6
CN1CCN(Cc2cc(=O)n3ccsc3n2)CC1	i	-0.15
C[C@]12CCC3c4ccc(OC(=O)N(CCCl)CCCl)cc4CCC3C1CC[C@@H]2O (stereo partly drawn)	i	0.6
CCC(=O)N1N=C2C3CCN(CC3)[C@@H]2[C@@H]1c1ccc(OC)cc1	i	0.95
CC(C)c1ccc(NC(=O)CN2C(=O)CN=C(c3ccccc3)c3ccccc32)cc1	i	0.51

An excerpt of these results, field by field:
CS(=N)(=O)CC[C@H](N)C(=O)O (stereo partly drawn)
  Choline anaer gr: i | Choline anaer gr early: 0.79

C[N+](C)(C)CC#CCOC(=O)Nc1cccc(Cl)c1
  Choline anaer gr: i | Choline anaer gr early: 0.82

Later entries
SMILES	Choline anaer gr	Choline anaer gr early
CN(N=O)c1cc(O)ccc1O	i	-0.26
CC(=O)Nc1ccc(C)cc1S(=O)(=O)N1Cc2ccccc2-n2cccc2C1c1ccc(C)cc1 (stereo not drawn)	i	-0.69
C#CCN[C@H](C)Cc1ccccc1	i	-0.62
C[C@H]1CCC/C=C/C2C[C@H](O)C[C@H]2[C@H](O)/C=C/C(=O)O1 (stereo partly drawn)	i	-0.87&0.42
CC(=O)NBr	i	0.5
Cc1ccc2c(c1)Cc1c(C(=O)NN3CCCCC3)nn(-c3ccc(Cl)cc3Cl)c1-2	i	0.15
NC(Cc1cc(O)c(O)cc1O)C(=O)O (stereo not drawn)	i	-1.1
C[C@]12CC[C@H](O)CC1=CCC1C2CC[C@]2(C)C(=O)CC[C@@H]12 (stereo partly drawn)	i	0.1
COc1ccc2c(c1)C1(CCN(S(=O)(=O)c3c(C)noc3C)C1)C(=O)N2 (stereo not drawn)	i	-0.08
CN1C[C@H](CNC(=O)OCc2ccccc2)C[C@@H]2c3cccc4c3c(cn4C)C[C@H]21	i	0.42&-1.2&-2.6
Cc1ccc2nc(NC(=O)c3cccn(Cc4ccc(Br)cc4)c3=O)sc2c1	i	-1.2
O=C1NC(=O)c2c1c1c3ccccc3n3c1c1c2c2ccccc2n1C1CCC3O1	i	0.82
COc1ccc(/C=C\c2cc(OC)cc(OC)c2)cc1	i	1
C(=C\c1ccccc1)/CN1CCN(CCOC(c2ccccc2)c2ccccc2)CC1	i	-0.53
Fc1cc(Cl)ccc1C1NCCc2[nH]cnc21 (stereo not drawn)	i	0.61
Cn1c(O)c(C2=NNC(c3ccccc3)C2)c(=O)n(C)c1=O (stereo not drawn)	i	-0.72
CCC(C(=O)Nc1cccc(Cl)c1)N1C(=O)CN=C(c2ccccc2)c2ccccc21 (stereo not drawn)	i	0.18
CC(C)n1[nH]c(=O)c2c1NC(=O)CSC2c1ccc(Cl)cc1 (stereo not drawn)	i	0.99
Cc1c2ccncc2c(C)c2c1[nH]c1ccccc12	i	-4
CCOc1cncc(/C=C/CCNC)c1	i	0.48
OC12C3C4CC5C6C4C1C6C(C53)N2CCc1cccc(F)c1 (stereo not drawn)	i	-2
COc1cccc([C@@]2(O)CCCC[C@@H]2CN(C)C)c1	i	0.63&0.67
CCCNC(=O)N1CCC2(C1)C(=O)N(C)c1ccc(OC)cc12 (stereo not drawn)	i	0.25
CC1CCN(CC(O)c2c[nH]c3ccccc23)CC1 (stereo not drawn)	i	0.31
Cc1[nH]c2c(C)cccc2c1C(O)CN1CCCCC1 (stereo not drawn)	i	-0.85
C=C(C)[C@@H]1CCC(C)=C[C@H]1c1c(OC)cc(C)cc1OC	i	0.2
O=[N+]([O-])c1cc(O)c(O)c([N+](=O)[O-])c1	i	-0.23&-0.74
COc1ccc2c(c1)C1(CCN(S(=O)(=O)c3ccc4c(c3)OCCO4)C1)C(=O)N2C (stereo not drawn)	i	1
CN1CC[C@@]2(C)c3cc(OC(=O)Nc4ccccc4)ccc3N(C)[C@@H]12	i	0.43
CC(C)n1cnnc1C1CCCNC1 (stereo not drawn)	i	0.44
CC(C)N(CCC(C(N)=O)(c1ccccc1)c1ccccn1)C(C)C (stereo not drawn)	i	0.01&0.24&-0.06&-0.46
CC(=O)OC1CN2CCC1CC2 (stereo not drawn)	i	-0.11&0.69
CN1CCN(c2ccc3ccccc3n2)CC1	i	0.24
C=C1CC2C(CC[C@]3(C)C(=O)CCC23)[C@@]2(C)C=CC(=O)C=C12 (stereo partly drawn)	i	0.53
COc1ccccc1N1CCNCC1	i	0.5
Cc1csc(NC(=O)c2cccn(Cc3ccccc3)c2=O)n1	i	0.19
COc1ccc(Cc2nccc3cc(OC)c(OC)cc23)cc1OC	i	0.2&0.43&0.7
C[C@H](Cc1ccc2c(c1)OC(C(=O)O)(C(=O)O)O2)NC[C@H](O)c1cccc(Cl)c1	i	-0.03
COc1cc2c(cc1O)CCNC2C (stereo not drawn)	i	-0.5
C[C@@]12N[C@@H](Cc3ccccc31)c1ccccc12	i	0.39&0.45&-0.07
COc1ccccc1NC(=O)CCc1nc(C2=CCN(Cc3cccc(Cl)c3)CC2)no1	i	0.29
CCC1C=CC=CCC(C)C(O)C(C)C(=O)C(C)C(O)C(C)C(=O)C(C)C(O)C(C)C=CC(=O)OC2C(C)C(CC1)O[C@@]1(CCC(C)C(CC(C)O)O1)C2C (stereo partly drawn)	i	-0.75
CCCCC/C=C\C/C=C\C/C=C\C/C=C\CCCC(=O)NCc1ccc(O)c(OC)c1	i	0.91
COc1cccc2c1cc([N+](=O)[O-])c1c(C(=O)O)cc3c(c12)OCO3	i	0.64
CC(=O)OCC(=O)[C@H]1CC[C@H]2[C@@H]3CC[C@H]4C[C@H](O)CC[C@]4(C)[C@H]3C(=O)C[C@]12C	i	-0.04
CNC1(c2nnnn2-c2ccccc2)CCCCC1	i	-0.3
Cc1nn(-c2cccc(Cl)c2)c2c1C(c1ccsc1)SCC(=O)N2 (stereo not drawn)	i	-1.5
CC(C)C1c2cccn2-c2ccccc2CN1C(=O)Nc1cccc(Br)c1 (stereo not drawn)	i	0.64
Cc1ccc(S(=O)(=O)N[C@@H](CCCCN)C(=O)CCl)cc1	i	0.02&0.58
CCC1(C)CC(=O)NC(=O)C1	i	0.26&-0.23
COc1ccc2c(c[n+](C)c3c4cc5c(cc4ccc23)OCO5)c1OC	i	-2.4&-3.1
CCOc1ccc(NC(=O)CN2C(=O)CN=C(c3ccccc3)c3ccccc32)cc1	i	0.33
Oc1ccc2c3c1O[C@H]1c4oc5ccccc5c4C[C@@]4(O)C(C2)N(CC2CC2)CC[C@]314	i	0.56
C[C@@H]1O[C@H](C[N+](C)(C)C)C[C@H]1O	i	0.14
COc1ccc2c(c1)C1(CCN(C(=O)C(C)(C)C)C1)C(=O)N2 (stereo not drawn)	i	0.47
CCCCS(=O)(=O)N1CCC2(C1)C(=O)N(C)c1ccc(OC)cc12 (stereo not drawn)	i	0.01
NC1=NC(=O)C(c2ccccc2)O1 (stereo not drawn)	i	0.7
c1ccc(C2(c3ccccc3)CC2C2=NCCN2)cc1 (stereo not drawn)	i	0.32
N#CC1=CN(c2cc(F)ccc2F)c2ccc(F)cc2S1(=O)=O	i	-0.18
O=C(CCc1nc(C2=CCN(Cc3ccc(Cl)cc3)CC2)no1)NC1CCCCC1	i	0.22

Part of the list above, with two lines to a compound:
Every second line gives: Choline anaer gr, Choline anaer gr early
> CC(=O)OCC(=O)[C@H]1CC[C@H]2[C@@H]3CC[C@H]4C[C@H](O)CC[C@]4(C)[C@H]3C(=O)C[C@]12C
  i, -0.04
> Cc1ccc(S(=O)(=O)N[C@@H](CCCCN)C(=O)CCl)cc1
  i, 0.02&0.58
> COc1cccc2c1cc([N+](=O)[O-])c1c(C(=O)O)cc3c(c12)OCO3
  i, 0.64
> COc1ccc2c(c[n+](C)c3c4cc5c(cc4ccc23)OCO5)c1OC
  i, -2.4&-3.1
> c1ccc(C2(c3ccccc3)CC2C2=NCCN2)cc1 (stereo not drawn)
  i, 0.32
> CCC1(C)CC(=O)NC(=O)C1
  i, 0.26&-0.23

Grouped by structure: the compounds so far containing a thiophene ring, fused or not (two)
SMILES	Choline anaer gr	Choline anaer gr early
O=C1CSC(c2ccsc2)c2c(-c3ccc(Cl)cc3)nn(-c3ccccc3)c2N1 (stereo not drawn)	i	0.25
Cc1nn(-c2cccc(Cl)c2)c2c1C(c1ccsc1)SCC(=O)N2 (stereo not drawn)	i	-1.5

The listing continues.
SMILES	Choline anaer gr	Choline anaer gr early
CN1[C@@H]2CC[C@H]1CC(OC(=O)C1C=Nc3ccccc31)C2 (stereo partly drawn)	i	-0.16
O=c1c2ccccc2nc(/C=C/c2c[nH]c3ccccc23)n1-c1ccc(Cl)cc1	i	-0.92
Cc1cc([C@@H]2CCCN2C)on1	i	-0.2
C=CCN1CC[C@]23c4c5ccc(O)c4O[C@H]2/C(=N/NC(=O)c2ccccc2)CC[C@@]3(O)[C@H]1C5	i	-1.1
O=C(Nc1ccc2c(c1)OCO2)c1cccn(Cc2ccc(F)cc2)c1=O	i	1.9
O=C(O)Cc1cnc[nH]1	i	0.94
CC/C(=C\C=C\C1C=CC2CCCC2C1C(=O)c1ccc[nH]1)C1OC(C(C)C(=O)O)CCC1C (stereo not drawn)	i	-0.1
CCCN1CCc2cccc3c2[C@H]1Cc1ccc(O)c(O)c1-3	i	1.1
C[C@@H](N)[C@@H](O)c1ccccc1	i	-0.07
COc1ccc(CCC(=O)N2CCC3(C2)C(=O)N(C)c2ccc(OC)cc23)cc1 (stereo not drawn)	i	-0.2
CCCN1CCC[C@@H]2Cc3nc(N)ncc3C[C@H]21	i	0.53
CCN(CC)CCn1c(NCc2ccc(Cl)cc2)nc2ccccc21	i	-0.06
Cc1ncsc1CCCl	i	0.44&-0.05
CC(Cc1ccc(O)cc1)NCC(O)c1cc(O)cc(O)c1 (stereo not drawn)	i	0.81&-0.5
Cc1ncc(CNC(=O)N(CCCl)N=O)c(N)n1	i	0.74
CCCNC(=O)N1CCC2(C1)C(=O)Nc1ccc(OC)cc12 (stereo not drawn)	i	-0.17
Clc1ccc(C2NCCc3[nH]cnc32)c(Cl)c1 (stereo not drawn)	i	0.38
CC1=C2C[C@H]3[C@@H](CC=C4C[C@@H](O)CC[C@@]43C)[C@@H]2CC[C@]12O[C@@H]1C[C@H](C)CN[C@H]1[C@H]2C	i	0.34
CC(C)(C)c1o[nH]c(=O)c1CC(N)C(=O)O (stereo not drawn)	i	1.2&-0.08
CN1CC=C(c2noc(CCC(=O)NCCN3CCN(c4cccc(Cl)c4)CC3)n2)CC1	i	-1.1

Reprinted at random: 2 compounds from above
SMILES	Choline anaer gr	Choline anaer gr early
CC(Cc1ccc(O)cc1)NCC(O)c1cc(O)cc(O)c1 (stereo not drawn)	i	0.81&-0.5
Cc1cc([C@@H]2CCCN2C)on1	i	-0.2

More records:
SMILES	Choline anaer gr	Choline anaer gr early
C#CCN(C)C(C)Cc1ccccc1 (stereo not drawn)	i	-0.41&0.38
CN1CC=C(c2noc(CCC(=O)Nc3cccnc3)n2)CC1	i	-0.18
NCCc1c[nH]c2ccc(O)cc12	i	0.19&0.04&0.51&0.81&1.3
Nc1ncnc2c1ncn2[C@@H]1O[C@H](COP(=O)(O)CP(=O)(O)OP(=O)(O)O)[C@H](O)C1O (stereo partly drawn)	i	0.69
COC(=O)C1=CCCN(C)C1	i	0.77
CN(C)C(=O)Oc1cc(OC(=O)N(C)C)cc(C(O)CNC(C)(C)C)c1 (stereo not drawn)	i	0.75&0.09&-0.32
CCCCCCCC/C=C\CCCCCCCC(=O)N[C@H](C)CO	i	-0.01
O=C(NC1CCCC1)c1cc2cccnc2n(Cc2ccc(F)cc2)c1=O	i	-0.55
C=C1[C@@H](C)[C@H]2[C@H](Cc3ccccc3)NC(=O)[C@]23OC(=O)/C=C/[C@H](O)CCC[C@@H](C)C/C=C/[C@H]3[C@@H]1O	i	-0.84
CCCCC/C=C\C[C@@H](/C=C/C=C\C/C=C\CCCC(=O)O)OO	i	0.16
CN1CCC(N(C)c2nc(-c3ccncc3)nc3c2CCC3)CC1	i	-0.27
c1ccc(CCCN2CCN(CCOC(c3ccccc3)c3ccccc3)CC2)cc1	i	-0.64&-0.77
O=C(COc1ccc(Cl)cc1)N1CCN(CCc2ccncc2)CC1	i	-1.5
